Screening results (PubChem)
Polio RdRp inh: inhibitors of poliovirus RNA polymerase binding and polymerization | poliovirus polymerase elongation, fluorescence polarization; stronger effect = lower value | % elongation, % (compound at 16.7 µg/mL) | 0.66% of 150,000 active; in the data active = % elongation below about 90%; also: some results filed as inactive read as strong as hits
Mtb MenB inh: inhibitors of Mycobacterium tuberculosis MenB enzyme; P9WNP5; MenB enzyme assay, absorbance read-out; some hits fall short of the stated cut; inhibition, %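 (about 12 µg/mL by stock and volumes)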; 0.43% of 100,000 active; AID 540299;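 active = mean of two replicates above 30%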;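 also: 0% = no compound and 100% = wells with inactive enzyme; the first replicate is given; strong numbers were not always called active; inactives centre near -10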
Target sequence (P9WNP5 whole entry, looked up): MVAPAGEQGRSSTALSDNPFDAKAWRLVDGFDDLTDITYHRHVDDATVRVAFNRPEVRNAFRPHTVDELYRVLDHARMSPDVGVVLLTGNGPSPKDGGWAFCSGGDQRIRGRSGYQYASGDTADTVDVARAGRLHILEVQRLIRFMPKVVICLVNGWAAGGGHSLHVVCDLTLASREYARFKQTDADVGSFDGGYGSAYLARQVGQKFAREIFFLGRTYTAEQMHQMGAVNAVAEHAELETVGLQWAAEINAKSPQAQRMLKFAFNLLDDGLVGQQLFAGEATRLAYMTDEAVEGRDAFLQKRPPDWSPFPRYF
Mtb MbtI inh: inhibitors of Mycobacterium tuberculosis siderophore enzyme MbtI | P9WFX0 | purified MbtI enzyme, fluorescence intensity read-out | inhibition, %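 (about 17 µg/mL by stock and volumes)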 | 0.89% of 100,000 active;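 active = above 50% in both replicates, above 80% if mildly self-fluorescent; inactive = the rest, strongly fluorescent compounds included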;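 also: 0% = mean of negative and 100% = mean of positive controls; one replicate is shown; some compounds called inactive have numbers as strong as hits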
Target sequence (P9WFX0 whole entry, looked up): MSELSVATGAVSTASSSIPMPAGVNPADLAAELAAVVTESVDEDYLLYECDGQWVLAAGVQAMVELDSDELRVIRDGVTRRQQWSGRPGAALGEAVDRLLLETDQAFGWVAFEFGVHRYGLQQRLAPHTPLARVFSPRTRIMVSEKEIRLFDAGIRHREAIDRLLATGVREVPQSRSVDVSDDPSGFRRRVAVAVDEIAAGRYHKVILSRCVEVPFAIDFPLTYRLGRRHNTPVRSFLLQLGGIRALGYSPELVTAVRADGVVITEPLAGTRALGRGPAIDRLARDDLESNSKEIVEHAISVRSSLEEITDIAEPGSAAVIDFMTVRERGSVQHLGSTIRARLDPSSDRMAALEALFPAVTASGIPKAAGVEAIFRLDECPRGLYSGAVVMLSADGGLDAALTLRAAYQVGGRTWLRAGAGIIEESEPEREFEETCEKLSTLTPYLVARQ
Polio RdRp inh intensity: further read-out of Polio RdRp inh, marked with its call; % elongation; measured here: total intensity read-out; formula for this scale not given here;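 total fluorescence in place of polarization; lower means less elongation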
* hit, by the source's call; i = inactive; / = not tested or not shown; & = joins results of further samples. No enrichment for hits; any-hit rate near 2%.

Screens in order – Mtb MenB inh | Polio RdRp inh intensity | Polio RdRp inh | Mtb MbtI inh
> CCCc1nnc(SCC(=O)N2CCCc3ccccc32)n1CC
 : 15 | 103 | 101 | -1
> CC(C)(C)NC(=O)COc1ccc(CNc2ccc3c(c2)OCCO3)cc1
 : -13 | 102 | 102 | -7
> N#Cc1ccc(C(=O)N/N=C/c2cn(CC(=O)O)c3ccccc23)c(F)c1
 : 0 | 100 | 102 | 9
> CN(C)CC(=O)c1ccc(-c2ccccc2)cc1
 : -22 | 102 | 100 | 126
> N#Cc1c2c(c(-n3cnc4ccccc43)n3c1nc1ccccc13)CCCC2
 : -4 | 103 | 102 | -6
> Cc1ccc(S(=O)(=O)NCc2ccc(C(=O)NCCN3CCN(c4ccccc4)CC3)cc2)cc1
 : -15 | 100 | 99 | 4
> O=C(NCCOc1ccccc1Cc1ccccc1)c1ccc(Br)cc1
 : -13 | 97 | 100 | /
> COCCNc1c(-c2ccc(N)cc2)nc2ccc(C)cn12
 : -20 | 98 | 102 | 56
> C=C1CC[C@H](O)C/C1=C/C=C1\CCC[C@]2(C)[C@@H]([C@H](C)CC[C@@H](O)C(C)(C)O)CC[C@@H]12
 : 2 | 104&104 | 101&100 | -25
> O=C(NCc1ccccc1)N1CCN(c2ccccc2)CC1
 : -10 | 105 | 101 | -8
> O=C(O)CCNc1nc(C(F)(F)F)nc2ccccc12
 : 1 | 102 | 100 | 9
> O=C1OCCN1/N=C/c1ccc([N+](=O)[O-])o1
 : 2 | 100 | 98 | 8
> O=c1c(S(=O)(=O)c2ccccc2)cn(Cc2ccc(F)cc2)c2ccc(F)cc12
 : 3 | 104 | 104 | 1
> CC1CCCC(C)N1NC(=O)C1CC(=O)N(c2ccc3c(c2)OCCO3)C1 (stereo unspecified)
 : -19 | 97 | 106 | -5
> CCn1cc(S(=O)(=O)c2ccc(C)cc2)c(=O)c2cc(F)c(N3CCOCC3)cc21
 : 6 | 106 | 103 | -5
> CCNCc1ccc(-c2ccccc2)o1
 : -6 | 101 | 100 | 3
> Cc1ccc(NCC2COc3ccccc3O2)cc1 (stereo unspecified)
 : -11 | 102 | 97 | /
> O=S(=O)(C1=CC23CCCC2(C=C(S(=O)(=O)c2ccc(Cl)cc2)C3)C1)c1ccc(Cl)cc1 (stereo unspecified)
 : -2 | 109 | 107 | -16
> Cc1ccc(Cn2c(C(=O)Nc3ccc(F)cc3C)cc3oc(C)cc32)cc1
 : -8 | 105 | 101 | 14
> Oc1ccc(/C=N/N=C/c2ccc(O)cc2)cc1
 : -23 | 103 | 102 | 10
> COC(=O)c1ccccc1NC(=O)CCCC(=O)O
 : 16 | 98 | 104 | 30
> CN(C)C1(CNC(=O)NC(=O)c2ccccc2)CCCCC1
 : -23 | 93 | 96 | 12
> CCOc1ccc(C2=C(CN3CCOCC3)C(c3ccccc3)c3ccccc3O2)cc1 (stereo unspecified)
 : -26 | 103 | 105 | 13
> COC(=O)Cc1[nH]nc2c1C(c1c[nH]c3ccccc13)C(C#N)=C(N)O2 (stereo unspecified)
 : 25 | 102 | 102 | 8
> N#Cc1ccc(OCOc2ccc(C#N)cc2)cc1
 : -6 | 106 | 109 | -3
> CC(=O)Nc1cc(Cl)ccc1Cl
 : -3 | 110 | 111 | 4
> COc1ccc(Cn2nnnc2C(c2ccccn2)N2CCc3ccccc3C2)cc1 (stereo unspecified)
 : -32 | 101 | 102 | 4
> CC(=O)NC1=NN(C(C)=O)C(C)(CS(=O)(=O)c2ccc(C)cc2)S1 (stereo unspecified)
 : -7 | 106 | 102 | -1
> CN1CCN(NC(=O)c2ccc(-c3ccccc3)cc2)CC1
 : -6 | 99 | 100 | 1
> CC(C)C1=NN2C(=N)/C(=C/c3ccccc3)C(=O)N=C2S1
 : -38 | 96 | 99 | 22
> COc1cc(C=C2C(=O)NC(=S)NC2=O)ccc1OCC(=O)O
 : -87 | 104 | 102 | -2
> CN1CCN(CP(=O)(N2CCCCC2)N2CCCCC2)CC1
 : -17 | 102 | 101 | -2
> CCOC(=O)c1cc2c(C(F)(F)F)cc(C(F)(F)F)nc2s1
 : -4 | 106 | 106 | -2
> CCNC(=O)CON=C1c2ccccc2-c2ccccc21
 : -25 | 99 | 100 | 17
> c1ccc(C2C/C(=N\N3CCOCC3)c3ccccc3O2)cc1 (stereo unspecified)
 : -2 | 108 | 102 | -4
> C/C=C/c1ccc(OC)cc1
 : 10 | 102 | 99 | -7
> Cc1cccc(N2NC(=O)/C(=C/c3ccc4c(c3)n(C)c(=O)n4C)C2=O)c1
 : 8 | 104 | 103 | 30
> CCN1/C(=C2/SC(=S)NC2=O)Sc2ccccc21
 : -18 | 98 | 99 | 3
> CCOc1ccc(N=C2C(=O)Nc3ccc(C)c(Br)c32)cc1
 : 0 | 93 | 97 | /
> COC(=O)C1CCC(=O)C(C(=O)OC)C1 (stereo unspecified)
 : -11 | 91 | 96 | 3
> CN(C)c1cccc(C(=O)NCCc2c[nH]c3ccccc23)c1
 : -10 | 110 | 110 | 103
> CCc1onc(C)c1C(=O)O
 : 17 | 104 | 103 | -5
> CCN1CCN(Cc2csc3c2CCCC3)CC1
 : 14 | 97 | 103 | 5
> Cc1ccc(C(=O)N2CC3(C)CC2CC(C)(C)C3)cc1 (stereo unspecified)
 : 4 | 102 | 103 | -1
> O=C(Nc1ccccc1Cl)c1cc(-c2cccs2)nc2ccccc12
 : -15 | 107 | 100 | i
> Cc1cccc(N2C(C)C(=O)SC23CCCCC3)c1 (stereo unspecified)
 : -15 | 110 | 110 | /
> Cc1cc2ncc(-c3ccn(S(=O)(=O)c4ccc(Cl)cc4)c3)nc2cc1C
 : -5 | 241 | 57 | 9
> Cc1cnc(NCCc2ccccc2)s1
 : -9 | 101 | 98 | 15
> Cc1csc(=O)n1CCC(=O)OCN1C(=O)c2ccccc2C1=O
 : -25 | 110 | 101 | 12
> Cc1cc(C(=O)NN2CCOCC2)nc2c1c(C)nn2-c1ccccc1
 : -3 | 107 | 103 | -8
> CCOc1ccc(NC(=O)CSc2nnc(C)n2CC2CCCO2)cc1 (stereo unspecified)
 : -11 | 101 | 102 | -10
> O=C(OCC(=O)N(C1CCCCC1)C1CCS(=O)(=O)C1)C1CC1 (stereo unspecified)
 : -13 | 108 | 101 | -8
> O=C(N1CCOCC1)n1ccnc1
 : -49 | 102 | 104 | -9
> O=c1ccc2ccc(Oc3ncnc4scc(-c5ccc(F)cc5)c34)cc2o1
 : -18 | 105 | 105 | /
> CCOCc1cn(CC(=O)c2ccc(OC(C)=O)c(OC(C)=O)c2)c(C)nc1=N
 : 18 | 101 | 104 | -4
> COC(=O)C1=C(C)NC(=O)/C1=C/c1ccc(CNS(=O)(=O)c2ccc(Cl)cc2)o1
 : -17 | 101 | 98 | 22
> COc1ccc(S(=O)(=O)N2CC3(C)CC2CC(C)(C)C3)cc1 (stereo unspecified)
 : -6 | 106 | 102 | 3
> Cc1cc2c(cc1S(=O)(=O)C(C)CC(=O)N1CCN(c3ccccc3F)CC1)OCC(=O)N2 (stereo unspecified)
 : 4 | 103 | 99 | -11
> COc1ccc(C2c3cc4c(cc3OC3(O)CCCC(=O)C23)OCO4)cc1 (stereo unspecified)
 : -21 | 112 | 113 | /
> CC(NC(=O)CN(C)Cc1cccs1)c1ccccc1 (stereo unspecified)
 : -22 | 103 | 105 | -2

Further structures.
Screens in order – Mtb MenB inh | Polio RdRp inh intensity | Polio RdRp inh | Mtb MbtI inh
> O=C(Cn1ncc2ccsc2c1=O)N1CCN(Cc2ccccc2)CC1
 : -25 | 100 | 101 | -3
> O=c1[nH]c(=O)n(C2CCCCC2)c(O)c1C=Nc1ccc(N2CCOCC2)cc1
 : -24 | 104 | 99 | -7
> CCOC(=O)c1c(NC(=O)CSc2nccn2C)sc2c1CCC(C)C2 (stereo unspecified)
 : -5 | 109 | 109 | /
> CC(C)(C)c1ccc(/C(N)=N/C(=O)N2CCOCC2)cc1
 : -8 | 101 | 102 | -6
> O=C(O)c1cc2n(n1)C(C(F)(F)F)CC(C1CC1)N2 (stereo unspecified)
 : 0 | 105 | 105 | -5
> O=c1[nH]cnc2c(Cl)cc(Cl)cc12
 : -3 | 111 | 111 | -6
> O=C(NC1CCCCC1)c1sc(=S)n2c1[nH]c(=O)c1ccccc12
 : 2 | 94 | 98 | 96*
> CC(=O)NC1C(OCc2ccc(Cl)cc2Cl)OC(CO)C(O)C1O (stereo unspecified)
 : 5 | 102 | 102 | -3
> CC(C)CC(=O)Nc1ccc(C(=O)NN)cc1
 : 6 | 101 | 103 | 18
> CC(=O)OCc1ccccc1Sc1ccccc1C(=O)Nc1ccccc1
 : 0 | 93 | 100 | 48
> COc1ccc(NC(=O)c2ccccc2NS(C)(=O)=O)cc1Cl
 : -8 | 100 | 101 | -191
> CCOC(Cn1c(Cc2ccccc2)nc2ccccc21)OCC
 : -5 | 97 | 99 | 2
> COc1ccc(CCNC(=O)c2cn[nH]c2C2CCNCC2)cc1OC
 : -5 | 102 | 103 | -6
> Cc1cc(=O)oc2cc(OCC(N)=O)c(Cl)cc12
 : -13 | 104 | 101 | i
> O=C(NCCCn1cccn1)C1CCC1
 : -9 | 105 | 100 | -9
> c1ccc2c(CCNc3ncnc4nc[nH]c34)c[nH]c2c1
 : -18 | 103 | 102 | 2
> Cc1cc(-c2ccc(C(C)C)c(S(=O)(=O)NCc3ccc(F)cc3)c2)on1
 : -26 | 101 | 99 | -14
> COC(=O)c1ccc(COC(=O)c2ccc(CN3CCCC3=O)cc2)cc1
 : -13 | 100 | 99 | -12
> CCCCN(C)C1=CC2=CC(=C(C#N)C#N)CCC2CC1 (stereo unspecified)
 : -16 | 240 | 45 | 0
> O=C(c1ccc2cn[nH]c2c1)N1CCN(c2ccccc2)CC1
 : -17 | 100 | 101 | -6
> Cc1sc(-n2c(C)cc(/C=C3\SC(=S)NC3=O)c2C)c(C#N)c1C
 : -92 | 124 | 113 | 16
> Cc1cc(S(=O)(=O)NC2CCCCC2)ccc1OCC(=O)NCC1CCCO1 (stereo unspecified)
 : -8 | 106 | 103 | -12
> O=c1cc(NCc2ccco2)[nH]c(=O)n1-c1ccc(Br)cc1
 : -20 | 109 | 102 | 12
> Cc1ccc2c(Cl)c(C(N)=O)sc2c1
 : -14 | 101 | 100 | -7
> CC1CCCN(C(=O)COC(=O)c2cccc(Cl)c2)C1 (stereo unspecified)
 : / | 96 | 99 | 1
> O=C(COc1ccc(S(=O)(=O)N2CCCc3ccccc32)cc1)Nc1ccc2c(c1)OCO2
 : -59 | 102 | 101 | -13
> C/C(=C\C#N)CCc1ccccc1
 : -11 | 103 | 102 | -15
> Cn1/c(=N/S(C)(=O)=O)sc2ccccc21
 : 6 | 104 | 102 | -2
> O=C1CCC(C(=O)OCc2cccc3ccccc23)=NN1
 : 3 | 105 | 100 | 0
> O=C(CSc1nnc(Cc2cccs2)n1C1CC1)Nc1ccc(Cl)cc1F
 : -12 | 111 | 105 | -7
> CNC(=O)NC(=O)C(C)Sc1nc2sccc2c(=O)n1-c1ccccc1 (stereo unspecified)
 : -22 | 102 | 105 | 4
> CC1CC(NC(=O)c2ccc(Br)cc2)CC(C)(C)C1 (stereo unspecified)
 : 2 | 112 | 108 | /
> O=C(NC(c1ccccc1)c1ccccc1)c1ccc(=O)[nH]c1
 : -14 | 103 | 109 | 11
> NC(=O)C1CCN(C(=S)Nc2ccc(Cl)cc2)CC1
 : -7 | 105 | 101 | 2
> O=C1CCN(C(=O)c2ccc(COc3ccccc3)cc2)CC1
 : -21 | 105 | 105 | -1
> COc1cc(C(=O)ON=C2CCSCC2)cc(OC)c1OC
 : -35 | 101 | 102 | -9
> N#CCCN1C(=O)c2ccccc2C1=O
 : 14 | 102 | 101 | -1
> Cc1ccc(CC(C#N)Sc2nnc(C3CCCCC3)o2)cc1 (stereo unspecified)
 : -22 | 108 | 104 | 12
> CC(C)(C)NC(=S)NCCc1ccccc1
 : -2 | 102 | 97 | 7
> C=CCn1c(=N)n(CC(O)C(C)(C)C)c2ccccc21 (stereo unspecified)
 : 2 | 102 | 103 | -3
> Cc1c(C(=O)OCC(=O)c2cccs2)oc2ccccc12
 : -24 | 106 | 108 | 12
> COC(=O)c1ccc(-c2ccco2)n1CC(=O)c1ccccc1
 : -10 | 112 | 106 | 34
